Vif TR-FRET = HIV-1 Vif–A3G interaction blockers – biochemical, TR-FRET, GST-Vif 1-94, biotin-A3G peptide, dose response retest, primary screen (AID 1117319); TR-FRET GST-Vif / biotin-A3G peptide binding; higher % means a stronger effect; test concentration not given here; strong numbers were not always called active; 0.57% of 260,000 active; inhibition, %; hits with a dose series show IC50 in µM;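 active = above the screen mean plus three standard deviations and confirmed in dose response; inconclusive = results disagree or hit not tested in dose response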;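 note: Vif residues 1-94 fused to GST binding biotinylated APOBEC3G peptide 110-148; 0% = full assay without inhibitor and 100% = GST in place of GST-Vif; retest series ran down from 100 µM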
Ecoli growth = blocks Escherichia coli growth; OD600, 23 h; hits give low values; 0.21% of 330,000 active; OD600 absorbance (concentration not given with the values);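 active = OD600 absorbance below the run mean of sample wells minus 3.6 SD, in any replicate, cut at about 0.56 in these data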;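 note: stock transfer was 300 nL into about 60 µL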
LANA-H2A inh = blocks KSHV LANA binding to histone H2A/H2B; Q9QR71; cell-free LANA-H2A/H2B peptide, fluorescence polarization; inhibition, % (no concentration beside the values); 0.6% of 320,000 active; AID 2629; in the data active = inhibition mostly above about 10%, no sharp cut-off; inactive = mostly below about 6.7%;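 note: stock transfer was 7.5 nL into about 10 µL; 0% = median of vehicle wells and 100% = median of positive control wells; one replicate is shown; the record names a cut of 25% in any replicate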
B2AR ag = agonists of human beta-2 adrenergic receptor inducing internalization; P07550; Am2.2-beta2AR cells, FAP receptor internalization, flow cytometry; reference of the scale not given here; response, % (no concentration beside the values); 0.43% of 340,000 active; AID 504454;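 active = response above a set limit, near 3 SD of response in nonfluorescent compounds, cut at about 42% in these data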;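 note: stock transfer was 100 nL into about 11 µL; a reference agonist was the positive control; negative values mostly stem from fluorescent compounds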
Target sequence (P07550 whole entry, looked up): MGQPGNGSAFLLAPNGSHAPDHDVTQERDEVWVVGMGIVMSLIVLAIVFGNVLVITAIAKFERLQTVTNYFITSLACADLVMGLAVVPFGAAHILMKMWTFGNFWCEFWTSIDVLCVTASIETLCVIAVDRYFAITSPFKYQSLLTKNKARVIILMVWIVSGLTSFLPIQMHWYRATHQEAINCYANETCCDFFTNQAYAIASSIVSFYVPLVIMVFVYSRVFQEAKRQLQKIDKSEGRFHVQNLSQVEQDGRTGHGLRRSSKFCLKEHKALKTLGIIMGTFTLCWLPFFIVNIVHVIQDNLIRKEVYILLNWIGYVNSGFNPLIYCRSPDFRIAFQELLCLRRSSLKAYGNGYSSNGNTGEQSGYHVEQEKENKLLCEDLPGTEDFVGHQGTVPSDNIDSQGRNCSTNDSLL
UCH37 DUB inh = human UCH37 deubiquitinating enzyme inhibition; Q9Y5K5; purified proteasome/UCH37, Ub-AMC cleavage fluorescence; inhibition, % (no concentration beside the values); 0.33% of 330,000 active;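 active = mean of two replicates above 20%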;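 note: 0% = compound-free wells with enzyme and 100% = wells lacking proteasome; stock transfer was 100 nL into about 20 µL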
Target sequence (Q9Y5K5 whole entry, looked up): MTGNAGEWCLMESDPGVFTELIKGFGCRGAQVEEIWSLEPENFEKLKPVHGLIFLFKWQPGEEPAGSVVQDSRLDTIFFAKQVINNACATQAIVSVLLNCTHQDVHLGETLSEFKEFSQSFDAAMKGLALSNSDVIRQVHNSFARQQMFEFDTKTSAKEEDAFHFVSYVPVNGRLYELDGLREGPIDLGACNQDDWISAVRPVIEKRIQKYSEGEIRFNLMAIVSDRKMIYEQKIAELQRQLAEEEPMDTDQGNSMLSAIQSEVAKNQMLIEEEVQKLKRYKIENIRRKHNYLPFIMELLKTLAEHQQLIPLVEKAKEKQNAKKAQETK
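Signal – fluorescence, ex 355 nm, em 460 nm · System – Proteasome-bound UCH37 · Input – 0.15 nM proteasome as dispensed · Timing – 30 min preincubation with enzyme, 25 min cleavage at room temperature · Read-out basis – percent inhibition of cleavage signal versus uninhibited and no-proteasome wells · Medium – Tris-HCl pH 7.4 with ATP-MgCl2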
A1 inh = inhibitors of the anti-apoptotic protein A1, read as caspase activation; MEF A1-2A-BIM cells, Caspase-Glo 3/7 luminescence, 3 h; percent of clofoctol response, vehicle zero; caspase activation, % (test concentration not listed); 0.066% of 330,000 active; AID 2462;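 active = over half of replicate activation scores above 10%, or exactly half above 10 with the replicate mean above 10; inconclusive = replicate mean below 10 yet half the replicates above 10; inactive = over half of replicates below 10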;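 note: wells of about 30 µL received 50 nL stock; many hits fall short of the cut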
HNF4A DNA FP = change in binding of human HNF4 alpha to DNA; HNF4a-FITC DNA binding, fluorescence polarization, 1 h; activity change, % at 10 µM; 0.3% of 360,000 active; AID 1224865; in the data active = activity change above about 30%, passing the limit was not always enough;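 note: controls were the assay level and a saturating level of protein; the project sought stronger binding though the title names inhibitors; some compounds called inactive have numbers as strong as hits; positive values seem to mean higher polarization but the record does not say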
Active calls of the source: *; ? = inconclusive; . = not tested or not shown.

A first look (2 entries):
SMILES | Vif TR-FRET | Ecoli growth | LANA-H2A inh | B2AR ag | UCH37 DUB inh | A1 inh | HNF4A DNA FP
CCOC(=O)c1nc(N)c(=O)n(-c2ccc(C)cc2)n1 | -5.3% | 0.701 | 2.6 | 7.6 | 2.4 | 0.8 | 1.0
CCOC(=O)N1CCC(NC(=O)C2CCN(c3nc(-c4ccc(OC)cc4)no3)CC2)CC1 | 74.6% | 0.718 | 6.1 | -1.5 | 3.0 | -0.2 | 0.1

The list itself, from the first entry:
SMILES | Vif TR-FRET | Ecoli growth | LANA-H2A inh | B2AR ag | UCH37 DUB inh | A1 inh | HNF4A DNA FP
CCOC(=O)c1nc(N)c(=O)n(-c2ccc(C)cc2)n1 | -5.3% | 0.701 | 2.6 | 7.6 | 2.4 | 0.8 | 1.0
CCOC(=O)N1CCC(NC(=O)C2CCN(c3nc(-c4ccc(OC)cc4)no3)CC2)CC1 | 74.6% | 0.718 | 6.1 | -1.5 | 3.0 | -0.2 | 0.1
Cc1cccc(NC(=O)C2CCCN(C(=O)NC3CCCCC3)C2)c1C (stereo not drawn) | -0.9% | 0.69 | 3.1 | 9.0 | 1.6 | 0.1 | 1.6
Cc1nc2sc(C(c3ccccc3)N3CCC(O)CC3)c(O)n2n1 (stereo not drawn) | -2.7% | 0.689 | 2.0 | 5.7 | 2.1 | 0.6 | -4.6
Cc1nc(Nc2nc3ccccc3o2)nc2c1CCC2 | 18.1% | 0.65 | 0.1 | -6.4 | 3.0 | -7.6 | -2.1
O=C(O)c1ccc(Oc2ccc(C(F)(F)F)cn2)cc1 | . | 0.734 | 2.5 | -0.6 | 4.6 | -2.4 | -0.4
CCN(CC)S(=O)(=O)c1ccc(C(C)NCC(=O)Nc2ccccc2C(=O)NC2CC2)cc1 (stereo not drawn) | -1.3% | 0.613 | . | 1.9 | -1.6 | . | 0.3
NC(Cc1ccccc1)C(O)(c1ccccc1)c1ccccc1 (stereo not drawn) | . | 0.632 | -0.2 | 9.8 | 3.2 | 1.2 | 2.7
CN(Cc1ccccc1)C(=O)C1CCCN(c2ncnc3c2nc2n3CCCCC2)C1 (stereo not drawn) | 2.2% | 0.633 | -6.1 | 3.0 | 0.5 | 1.0 | -5.1
O=C(c1ccc(F)cc1)C1CCN(C(=O)NC2CCCCC2)CC1 | 1.3% | 0.731 | 3.2 | -3.5 | 1.3 | 0.7 | 0.4
COCCNC(=O)CCCn1c(=O)c2cc(OC)c(OC)cc2n(CC(=O)Nc2ccccc2OC)c1=O | -9.8% | 0.694 | -2.0 | -5.5 | -6.9 | 0.8 | -1.9
Cc1nn(C)c(C)c1Nc1ccc(N2C(=O)C3C4C=CC(C4)C3C2=O)cc1[N+](=O)[O-] (stereo not drawn) | . | 0.678 | -0.6 | 5.8 | 6.3 | 0.0 | 0.6
Cc1nc2scc(-c3ccc(Cl)cc3)c2c(=O)o1 | 19.2% | 0.692 | -3.2 | 4.2 | -2.2 | 0.5 | 1.3
COc1ccc(CC(=O)OCC(=O)NC(=O)NC2CCCC2)cc1 | . | 0.673 | 1.2 | -1.5 | 3.4 | -0.1 | -3.7
Cc1cccc(N2CCN(CC3CCCCC3)CC2)c1C | -2.2% | 0.596 | -2.8 | 6.6 | 2.1 | -0.1 | -1.5
CCOC(=O)C1CCN(C(=O)Nc2ccc(OCc3ccccc3)cc2)CC1 | ? | 0.686 | 3.5 | 2.3 | 2.9 | 0.4 | -5.3
COC(=O)C1=C2SC(C)C(=O)N2C(N)=C(C#N)C1c1ccc(OC)c(OC)c1 (stereo not drawn) | 3.0% | 0.747 | -1.4 | 1.0 | -2.3 | 0.6 | 0.4
COc1cc(-c2cc(-c3nnco3)c3ccccc3n2)cc(OC)c1OC | . | 0.704 | 2.9 | 3.8 | -3.5 | 0.3 | -0.7
O=C(Nc1nncs1)C1CCCC1 | . | 0.672 | 3.6 | -9.9 | 4.4 | 1.1 | 0.5
CCOc1ccc(/C=N/Nc2nc(N3CCCC3)nc(N3CCCC3)n2)cc1OC | 9.3% | . | -0.1 | 26.7 | . | -0.1 | 5.6
CCOC(=O)Nc1cccc(NC(=O)c2ccccc2F)c1 | . | 0.609 | -3.1 | . | 1.4 | -0.1 | -2.7
O=S(=O)(NCc1ccccc1Cl)c1cnc[nH]1 | 70.5% | 0.733 | -1.7 | -2.5 | 1.0 | 0.1 | 0.9
O=C(Nc1cccc(S(=O)(=O)Nc2ccc(Cl)cc2)c1)c1ccc(Cl)nc1 | 7.2% | 0.666 | 0.2 | -18.7 | 5.8 | -0.5 | -0.1
CCOc1ccccc1-n1c(SCC(N)=O)nnc1-c1ccccc1 | -0.6% | 0.691 | 6.3 | 11.4 | 3.5 | 0.4 | -2.1
O=C(Nc1ccc(C(=O)N2CCOCC2)cc1)c1cccs1 | 14.6% | 0.78 | 5.1 | -15.6 | 5.6 | 0.4 | -0.6
CC1CN(S(=O)(=O)c2cc(C(=O)NCCC3=CCCCC3)ccc2Cl)CC(C)O1 (stereo not drawn) | 9.6% | 0.684 | -3.4 | 0.1 | 4.6 | 1.1 | 0.0
Cc1cccc(N2CC(C(=O)Nc3nnc(SCC(=O)NCC4CCCO4)s3)CC2=O)c1 (stereo not drawn) | 20.1% | 0.707 | 3.4 | -1.9 | 2.9 | 0.8 | -0.4
Cn1c(Br)nc2c1c(=O)n(Cc1ccccc1)c(=O)n2C | . | 0.662 | -2.2 | 2.1 | 2.4 | -0.1 | 1.1
O=C(CSc1cccc(C(F)(F)F)c1)NCc1ccccc1 | -9.7% | 0.699 | . | 0.5 | 6.0 | 0.5 | -1.8
CCOc1ccc(OCCCCn2ccnc2)cc1 | -0.2% | 0.699 | -2.6 | -2.5 | 6.7 | 0.3 | -3.0
COC(=O)C1=C(C)N(CCCC(=O)O)C(=O)NC1c1ccc2c(c1)OCO2 (stereo not drawn) | . | 0.676 | 4.8 | 0.6 | 3.8 | 1.1 | 3.5
CCC1(c2ccc(Cl)cc2)NC(=O)N(CC(=O)NC2CCCCCC2)C1=O (stereo not drawn) | -7.6% | 0.655 | . | -15.4 | 6.6 | . | -3.8
CC(C)c1nnc(NC(=O)C2CCCN2C(=O)Nc2ccccc2[N+](=O)[O-])s1 (stereo not drawn) | 3.8% | 0.653 | -6.7 | -2.3 | 2.1 | 0.0 | 1.6
FC(F)Sc1ccc(NC(=S)N2CCN(c3ccccn3)CC2)cc1 | 0.3% | 0.672 | . | -6.2 | 2.7 | . | -1.4
O=C(Nc1ccccc1Cl)C1C(c2ccccc2)C1(Cl)Cl (stereo not drawn) | 6.5% | 0.672 | 0.3 | 9.2 | 0.5 | 0.2 | -8.1
O=C(CSc1ncnc2c1oc1ccccc12)Nc1ccccc1F | -98.8% | 0.749 | 4.3 | -10.8 | 4.3 | -0.7 | 0.3
Cc1c(Cl)c([N+](=O)[O-])nn1CCCC(=O)Nc1cccc(O)c1 | 14.6% | 0.657 | -5.8 | 9.6 | 4.0 | -0.5 | 1.8
Cn1c(=O)cc(SCC(=O)Nc2ccc3c(c2)OCO3)c2ccccc21 | -3.9% | 0.687 | 7.1 | -17.4 | -5.9 | 0.8 | 1.8
COC(=O)c1ccc(NC(=S)NCCc2ccccc2C)cc1 | 8.3% | 0.662 | -0.8 | 1.2 | 0.0 | 0.6 | -1.4
COc1ccc(N(C(C)C(=O)Nc2ccc(S(=O)(=O)N3CCOCC3)cc2)S(C)(=O)=O)cc1 (stereo not drawn) | 28.8% | 0.701 | 3.7 | 7.4 | 2.8 | 0.8 | 7.0
CCSc1ccc2nnc(-c3cccc(F)c3)n2n1 | -2.4% | 0.704 | 0.9 | -19.5 | -3.4 | 1.4 | 2.4
CCN(CC)S(=O)(=O)c1ccc(NC(=O)CCC2CCCCC2)cc1 | 2.8% | . | -4.5 | 12.8 | . | 0.7 | 0.6
COc1cccc(NC(=O)CNC(=O)c2ccc(C)cc2)c1 | 6.6% | 0.678 | -2.9 | 1.1 | 0.7 | 1.1 | 2.2
CCCC(=O)N/C(N)=N/c1nc2ccccc2o1 | -20.5% | 0.631 | 1.6 | -2.9 | 7.1 | -1.2 | 3.1
COCCN1CCN(Cc2cn[nH]c2-c2cc3ccccc3o2)CC1 | -0.5% | 0.688 | 6.2 | -0.7 | 1.7 | 0.9 | 1.1
C=CCN(c1ccc(OC)cc1)S(=O)(=O)c1ccc(Cl)c(C(=O)OCC(=O)NC2CC2)c1 | 13.6% | 0.715 | 2.2 | 3.0 | 5.3 | 0.6 | -2.4
COc1ccc(OC)c(/C=C2/Sc3ccccc3C2=O)c1 | . | 0.719 | -1.2 | -30.5 | 2.6 | 0.7 | 75.1
C/C(=N\NC(=O)C1CC1)c1ccccc1Br | . | . | -3.0 | -9.8 | . | -0.4 | 0.7
Cc1c(O)c(CN2CCCCC2)cc2c1oc(=O)c1ccccc12 | 2.2% | 0.675 | -0.7 | -2.4 | 0.8 | 1.8 | -3.3
C=CCN1C(=NC(=O)CCC(=O)O)SC2CS(=O)(=O)CC21 (stereo not drawn) | 3.6% | 0.686 | -1.9 | 2.8 | -0.6 | 1.4 | 0.7
COc1cc(NC(=O)CNc2ccc(Cl)c(S(=O)(=O)N3CCOCC3)c2)cc(OC)c1 | 5.2% | 0.73 | -3.2 | 10.4 | -1.5 | -1.5 | -2.1
O=C(Cn1nc(Cc2cccnc2)c2ccccc2c1=O)NCc1ccc2c(c1)OCO2 | 13.0% | 0.747 | 3.4 | -1.2 | 5.9 | -0.3 | -4.4
CCOc1cc(C(=O)N=c2sccn2C)cc(Br)c1OC | -5.2% | 0.726 | -0.6 | 12.2 | -1.6 | -0.4 | -1.1
O=[N+]([O-])c1ccc(Cl)c(CN2CCN(c3ncccn3)CC2)c1 | . | 0.634 | -3.3 | -3.9 | 1.8 | 0.7 | 4.8
CCCn1c2ccccc2c2cnn(CC(=O)N3CCOCC3)c(=O)c21 | . | 0.686 | -0.2 | -1.2 | -17.3 | 0.5 | -2.1
CCC(=O)N1CCN(c2ccc(NC(=O)c3ccccc3)cc2)CC1 | 15.0% | 0.668 | -0.7 | -8.2 | 0.9 | 0.5 | -3.0
O=C(Nc1ccc(S(=O)(=O)N2CCCC2)cc1)c1c(F)cccc1F | . | 0.674 | -14.0 | 3.6 | 0.9 | -0.6 | -2.3
CC(=O)/C(N=Nc1ccc2c(c1)OCO2)=C(\C)O | 2.0% | 0.681 | 2.7 | 4.4 | 7.3 | -6.9 | 2.5
COCCCN(C(C)=O)c1nc(-c2ccccc2)cs1 | -1.3% | 0.71 | 1.9 | -11.8 | 2.8 | -1.9 | 0.5
CCN1C(=O)/C(=C2/SC(C)=C(C)N2CC)SC1=S | 2.3% | 0.687 | -3.3 | -10.4 | -0.2 | -0.1 | 1.4

Next entries.
SMILES | Vif TR-FRET | Ecoli growth | LANA-H2A inh | B2AR ag | UCH37 DUB inh | A1 inh | HNF4A DNA FP
CC(C)(C)c1cc(C(=O)N2CCN(c3ncccn3)CC2)ccn1 | 2.0% | 0.639 | 2.7 | -0.2 | -1.6 | 0.1 | 2.3
COc1ccc(CCn2c(N)c(S(=O)(=O)c3cccs3)c3nc4ccccc4nc32)cc1OC | -5.9% | 0.685 | -1.8 | 3.8 | -17.0 | 1.4 | -1.4
O=C1N(CCCCN2C(=O)C3(OCCO3)c3ccccc32)c2ccccc2C12OCCO2 | ? | 0.717 | -1.5 | 3.6 | 1.4 | 0.8 | 1.0
COc1ccc(Cn2c(-c3ccco3)nc3c(c(=O)c4ccccc4n3C)c2=O)cc1 | . | 0.654 | 2.2 | 4.9 | 0.6 | 0.6 | -2.5
Cc1ccccc1Nc1c(-c2ccccc2)nc2ncccn12 | . | 0.693 | -1.9 | 14.4 | 0.8 | -1.4 | 0.4
CCOc1ncccc1C(=O)NCCCSc1ccccc1 | -3.0% | 0.679 | -3.7 | -26.3 | 0.1 | 0.2 | -3.8

Source: PubChem (several laboratories)
